From PubChem
Env fusion inh = HIV envelope-mediated fusion inhibition | AID 651610 | HeLa-JRFL Env/CEM21 cell fusion, luciferase | inhibition, % at 12.3 µM | actives 1.1% (n = 360,000);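 active = mean replicate inhibition score of at least 50 and every replicate individually at or above 50; inconclusive = only one of the two criteria met; inactive = mean below 50 and not all replicates reaching 50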;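 note: 0% = plate neutral controls and 100% = maraviroc near 300 nM; one replicate is shown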
MT1-MMP act inh = blocks activation of human MT1-MMP | GFP/RFP ratio change, % at 20 µM | HT1080 RFP-PRO-GFP cells, GFP/RFP ratio fluorescence, overnight; percent of plate control window, DMSO zero | P50281 | actives 0.061% (n = 360,000) | AID 651647;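 active = GFP/RFP ratio change of at least 30% with cell ATP level not reduced by more than half and red fluorescence within 50% of control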; note: strong numbers were not always called active
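Assay system: RFP-PRO-GFP reporter HT1080 cells; read-out basis: GFP/RFP fluorescence ratio; benchmarks: DMSO wells and RFP-L50D-GFP cells; doses: 20 µM single dose, 1% DMSO; schedule: overnight cell settling, then overnight compound exposure, 37 °C, 5% CO2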
PABP polyA inh = blocks human PABP binding to poly(A) RNA. inhibition, % at 35 µM. fluorescence polarization. actives 1% (n = 290,000). P11940;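 active = 50% or more with normal probe brightness, or confirmed in later tests; inconclusive = above 50% with abnormal brightness, or retests that disagree; inactive = below 50% or failed in later tests; about a fifth of its hits are not listed in these tables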;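 note: calls also rest on retests at 20 µM and on dose response follow-up; controls were probe without protein and protein plus probe with vehicle; some compounds called inactive have numbers as strong as hits; many hits fall short of the cut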
Target sequence (P11940 whole entry, looked up): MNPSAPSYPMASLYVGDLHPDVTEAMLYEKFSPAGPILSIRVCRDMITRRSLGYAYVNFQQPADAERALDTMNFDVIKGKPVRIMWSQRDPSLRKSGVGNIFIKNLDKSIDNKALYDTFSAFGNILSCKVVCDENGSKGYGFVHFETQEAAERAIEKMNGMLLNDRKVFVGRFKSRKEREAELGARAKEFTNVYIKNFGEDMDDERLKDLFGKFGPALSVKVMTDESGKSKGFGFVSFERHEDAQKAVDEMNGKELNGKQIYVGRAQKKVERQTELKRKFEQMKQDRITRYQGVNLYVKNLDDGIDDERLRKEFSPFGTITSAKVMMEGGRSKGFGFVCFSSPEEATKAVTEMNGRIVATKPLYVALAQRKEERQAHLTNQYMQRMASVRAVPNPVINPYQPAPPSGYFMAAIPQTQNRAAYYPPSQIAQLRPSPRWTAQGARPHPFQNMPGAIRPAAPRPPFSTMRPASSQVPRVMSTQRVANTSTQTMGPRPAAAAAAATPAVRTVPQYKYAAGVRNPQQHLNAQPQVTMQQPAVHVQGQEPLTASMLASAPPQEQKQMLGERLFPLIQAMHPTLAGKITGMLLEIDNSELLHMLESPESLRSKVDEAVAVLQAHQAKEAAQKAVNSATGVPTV
Rce1 inh = blocks yeast Ras-converting enzyme; yeast membranes, quenched prenylated peptide cleavage fluorescence; calls only; actives 0.27% (n = 290,000);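 active = fall in fluorescence gain of 50% or more versus controls, with final raw signal at or below 3038400; inconclusive = same 50% fall but final raw signal above 3038400; inactive = fall in fluorescence gain under 50%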;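 note: plate controls were neutral control wells for no effect and wells lacking membranes for full effect; tested at 10 µM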
eIF4H inh = inhibitors of RNA binding by human eIF4H | eIF4H fluorescence polarization binding assay | inhibition, % at 35 µM | actives 0.94% (n = 290,000) | AID 2012;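 active = 50% or more with normal probe brightness, or confirmed in later tests; inconclusive = above 50% with abnormal brightness, or retests that disagree; inactive = below 50% or failed in later tests; about a fifth of its hits are not listed in these tables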;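 note: calls also rest on retests at 20 µM and on dose response follow-up; 0% = protein and probe with vehicle and 100% = probe without protein; strong numbers were not always called active; many hits fall short of the cut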
UUG fidelity = yeast start codon fidelity modulation; S. cerevisiae UUG-firefly luciferase reporter, luminescence/redox ratio; activity score, % at 18.7 µM; actives 0.13% (n = 350,000); AID 602363;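 active = replicate mean at a twofold rise or more, about +100% in these data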;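 note: firefly luciferase made from a UUG start codon reports start codon fidelity; reporter light over untreated wells divided by growth signal over untreated wells; some hits fall short of that in this replicate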
CSC inhib = cancer stem cell inhibition | inhibition, % at 7.5 µM | cancer stem cell-like cells viability, luminescence | actives 1.1% (n = 300,000);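 active = mean at 75% or more and at least half the replicates too; inconclusive = mean and replicates disagree; tested in HMLE shEcad cells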;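 note: 0% = median of negative and 100% = median of positive control wells; the first replicate is given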
MT1-MMP act inh RFP = recorded beside MT1-MMP act inh, whose call it bears; RFP signal change, %; measured here: RFP expression control read;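 0 = vehicle wells; hits needed this value within 50% of zero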
The depositor's hits bear a star; i = inactive; ? = inconclusive; / = no result given; & = joins results of further samples; [ ] = another dose, or the depositor's remark. This is a subset; count on the stated rates, not on these rows.

Start of the data: the first two compounds, ahead of the listing:
cpd | SMILES | MT1-MMP act inh | PABP polyA inh | Env fusion inh | Rce1 inh | eIF4H inh | UUG fidelity | MT1-MMP act inh RFP | CSC inhib
1 | Cc1nc(N2CCC(C(N)=O)CC2)c2nnn(Cc3ccccc3)c2n1 | -1 | 5 | 33 | i | -3 | -8 | 2 | -5
2 | O=C(NC(Cc1ccccc1)C(=O)O)c1ccc(S(=O)(=O)N2CCCCC2)cc1 (stereo not drawn) | 1 | 0 | 1 | i | -3 | -8 | 10 | -11

The list itself, repeating the preview:
cpd | SMILES | MT1-MMP act inh | PABP polyA inh | Env fusion inh | Rce1 inh | eIF4H inh | UUG fidelity | MT1-MMP act inh RFP | CSC inhib
1 | Cc1nc(N2CCC(C(N)=O)CC2)c2nnn(Cc3ccccc3)c2n1 | -1 | 5 | 33 | i | -3 | -8 | 2 | -5
2 | O=C(NC(Cc1ccccc1)C(=O)O)c1ccc(S(=O)(=O)N2CCCCC2)cc1 (stereo not drawn) | 1 | 0 | 1 | i | -3 | -8 | 10 | -11
3 | O=C(c1ccc2c(c1)OCO2)N1CCC(Cc2ccccc2)CC1 | -2 | 3 | 35 | / | 1 | / | 1 | 1
4 | CCOC(=O)c1c(NC(=O)c2ccc(S(=O)(=O)N(C)CC3CCCO3)cc2)sc2c1CCN(C)C2 (stereo not drawn) | -12 | -13 | / | i | -38 | 7 | -6 | -5
5 | O=C(NC1CC1)c1ccc(S(=O)(=O)NC2CCCCCC2)cc1 | 7 | -1 | 12 | i | -2 | 3 | 2 | /
6 | O=C(c1ccc(Cl)cc1)C1CCN(C(=O)c2ccccc2)CC1 | -1 | 4 | 5 | i | 3 | 4 | -9 | -12
7 | COCCN1C(=O)N[C@@H](c2ccccc2)[C@@H](C(=O)OC)[C@H]1C | -2 | / | 4 | i | / | 0 | 0 | -8
8 | O=C(CSc1nc2[nH]ncc2c(=O)n1-c1ccccc1)c1ccc2c(c1)OCCO2 | -10 | 6 | -59 | i | -1 | -10 | -6 | 1
9 | CCCCN(C)C(=O)C1CCCN(S(=O)(=O)c2ccc3c(c2)CC(C)N3C(=O)C2CC2)C1 (stereo not drawn) | -5 | -5 | 3 | i | -10 | 32 | -4 | 2
10 | Cc1cccc(OCc2nnc(SCC(=O)OC3CCCCC3)o2)c1 | -2 | -2 | 21 | i | -8 | -47 | 1 | -8
11 | C=C1CCN([C@@H](C)C(=O)NCCCCCC)S(=O)(=O)c2ccccc21 | 2 | -10 | 23 | i | -8 | -10 | -1 | 11
12 | Cc1ccc(NC(=O)Nc2c(C)n(C)n(-c3ccccc3)c2=O)cc1 | 7 | 2 | -149 | i | 15 | 7 | 4 | -10
13 | O=C(O)c1cc(-c2ccccc2Cl)n(-c2ccccc2)n1 | 2 | 5 | -20 | i | -4 | -13 | 6 | 2
14 | CCOC(=O)N1CCC2CC1c1cc(Cl)ccc12 (stereo not drawn) | 1 | / | -3 | / | / | -4 | -2 | /
15 | O=C(COC(=O)c1ccc(Br)o1)NCC1CCCO1 (stereo not drawn) | -3 | -7 | / | i | -7 | -15 | -1 | -3
16 | CC(C)(O)C#Cc1ccc(CN2CCN(Cc3ccccc3)C(CCO)C2)s1 (stereo not drawn) | -5 | 6 | 19 | i | -2 | / | 2 | -7
17 | O=C(N/N=C/c1ccc(-c2cccc([N+](=O)[O-])c2)o1)c1ccc([N+](=O)[O-])cc1 | 4 | 16 | 9 | i | -3 | / | -2 | 11
18 | CC(C)(C)C(=O)NC(NC(=O)C(C)(C)C)c1ccc([N+](=O)[O-])cc1 | 1 | 6 | -39 | i | 0 | -9 | 4 | -7
19 | CCOc1ccc(N(CC(=O)NCCc2ccccc2)C(=O)CCC(=O)Nc2nccs2)cc1 | 0 | 0 | 1 | i | -4 | -6 | -2 | -8
20 | CCn1c(Nc2ccccc2Cl)nc2ccccc21 | 3 | 46 | -68 | i | 2 | / | 2 | -9
21 | CC12C(=O)N(Cc3ccco3)C(=O)C1C1c3ccccc3C2c2ccccc21 (stereo not drawn) | -7 | -2 | / | i | 3 | 7 | -8 | 0
22 | Cc1ccc2nc(NC(=O)CSCc3ccccc3)sc2c1 | 0 | 0 | -70 | i | 0 | -5 | 2 | 8
23 | CC1CCCN(C(=O)COc2ccc(Nc3ccccc3)cc2)C1 (stereo not drawn) | -1 | -3 | 18 | i | 2 | / | -2 | 9
24 | CCN1CCN(Cc2ccc(NC(=O)c3ccc(C)c(NC(=O)c4ccnnc4)c3)cc2C(F)(F)F)CC1 | 2 | 11 | 44 | i | -2 | -12 | -1 | 7
25 | Cc1ccccc1NC(=O)CN1C(=O)c2cccnc2Oc2ccc(Cl)cc21 | -1 | / | -5 | i | / | -11 | 0 | -1
26 | CCc1nc2c(OCc3ccc(C(F)(F)F)cc3)cccn2c1N(C)C(=O)C(C)C | -1 | / | 31 | / | / | -8 | -3 | /
27 | Cn1c(CSCc2ccc(F)cc2)nnc1SCC(=O)Nc1cccc(C(=O)O)c1 | 2 | -2 | ? | i | -4 | -17 | 1 | -17
28 | O=c1[nH]c(NCCO)nnc1Cc1ccc(Cl)cc1 | -4 | -9 | 3 | i | -1 | -14 | 2 | /
29 | CC1CC(C)(C)CC2(C1)NC(=O)N(CC(=O)Nc1ccc3c(c1)OCO3)C2=O (stereo not drawn) | 6 | / | 10 | / | / | -15 | 10 | /
30 | CN1CCN(C(=O)C2=C[C@@H](c3ccc4c(c3)OCO4)C[C@@H](OCc3ccc(CO)cc3)O2)CC1 | -1 | -2 | -7[16.7 µM] | i | -12 | -4&2 | 4 | 12
31 | O=[N+]([O-])c1ccc(CN2CCOCCOCCOCC2)cc1 | 0 | 0 | / | i | 1 | -8 | 4 | 0
32 | COc1ccc(COCC(O)CN2CCC(C(N)=O)CC2)cc1 (stereo not drawn) | 0 | 5 | 0 | i | -5 | -18 | -3 | 3
33 | O=C(O)c1ccccc1NC(=O)C(Cc1ccccc1)N1C(=O)c2ccccc2C1=O (stereo not drawn) | 4 | 9 | 0 | i | -5 | 0 | 0 | -3
34 | COc1ccccc1C(C)NC(=O)c1ccc(S(=O)(=O)NCc2ccco2)cc1 (stereo not drawn) | -2 | / | -15 | / | / | -17 | -2 | 0
35 | COc1ccc(N(C)S(=O)(=O)c2cccc(C(=O)N3CCN(Cc4ccc5c(c4)OCO5)CC3)c2)cc1 | 3 | / | 27 | / | / | 5 | -14 | /
36 | CC(=O)C(C(C)=O)c1c(Cl)c(O)c(O)c2c(C(=O)c3ccccc3)coc12 | -16 | -4 | / | i | -4 | / | -27 | 71
37 | CCCOC(=O)c1ccc(Oc2c(-c3ccc(O)cc3O)n[nH]c2C)cc1 | 4 | 1 | / | i | -7 | -15 | -2 | 117*
38 | C[C@@H]1CN([C@H](C)CO)C(=O)c2cccc(NC(=O)Nc3ccc(F)cc3)c2O[C@H]1CN(C)C(=O)Nc1ccc(C(F)(F)F)cc1 | 2 | / | -23 | / | / | 1 | -8 | 11
39 | O=C1NN(c2ccccc2)C(=O)/C1=C\c1ccccc1OCC(=O)N1CCOCC1 | -6 | 2 | -28 | i | 0 | -5 | -4 | 1
40 | Oc1ccc(N2CCN(C(c3ccccn3)c3nnnn3C3CCCC3)CC2)cc1 (stereo not drawn) | -1 | -10 | -19 | i | 10 | -12 | 3 | 15
41 | O=C(NC1CCCCC1)NC1(C(=O)N2CCN3CCCC3C2)CCCCC1 (stereo not drawn) | -2 | -6 | -51 | i | -7 | -9 | 1 | -2
42 | Cc1ccccc1NC(=O)NNC(=O)c1ccc2ccccc2c1 | -1 | 0 | 1 | i | 4 | -16 | 0 | -10
43 | CCOC(=O)Cc1csc(NC(=O)CCCCCN2C(=O)c3ccccc3C2=O)n1 | 7 | 8 | 17 | i | -5 | -1 | -4 | 12
44 | O=C(O)COCC(=O)N1CCCN(c2ccc(C(F)(F)F)cn2)CC1 | 0 | 1 | -7 | i | 4 | -8 | 3 | -3
45 | COCCn1c(=O)[nH]c2cc(C(=O)NC(C)C)ccc2c1=O | 2 | 4 | -11 | i | -6 | -20 | 6 | -2
46 | COc1ccccc1C1CCN(Cc2ccc3ccccc3c2)CC1 | 0 | -4 | -8 | i | 2 | -12 | 3 | 18
47 | CCN1C(=O)[C@H]2[C@@H](c3ccc(-c4ccc(OC)cc4)c(OC)c3)N[C@@](C)(C(=O)OC)[C@H]2C1=O | -1 | / | -16 | i | / | -5 | -1 | 2
48 | COC(=O)c1cc([N+](=O)[O-])c(-n2ccnc2)c([N+](=O)[O-])c1 | 2 | -8 | -9 | i | 1 | / | 5 | -8
49 | O=C(Nc1ccc(Cl)cc1Cl)c1ccc2ncsc2c1 | -1 | -12 | -37 | i | 19 | -9 | -1 | -16
50 | COc1ccncc1-c1csc(C(O)c2ccccc2)n1 (stereo not drawn) | -6 | / | 46 | / | / | -20 | -3 | /

Other entries follow:
cpd | SMILES | MT1-MMP act inh | PABP polyA inh | Env fusion inh | Rce1 inh | eIF4H inh | UUG fidelity | MT1-MMP act inh RFP | CSC inhib
51 | CCOc1ccc(CNCc2ccccc2Cl)cc1 | -1 | -10 | -16 | i | 3 | / | 4 | -1
52 | O=C(c1cn(-c2ccccc2)nc1-c1cccnc1)N1CCCC(C(F)(F)F)C1 (stereo not drawn) | -1 | / | 8 | i | / | 2 | 2 | -9
53 | O=C(Cn1c(COc2ccccc2)nc2ccccc21)Nc1cccc(Cl)c1 | 1 | -1 | -18 | i | -7 | / | -1 | -11
54 | Cc1ccccc1Nc1nc(N)nc(COC(=O)/C=C/c2ccco2)n1 | -1 | 15 | 0 | i | 12 | / | 8 | 11
55 | CCCCn1c(N)c(N(CCOC)C(=O)COC(=O)CCOc2ccccc2)c(=O)[nH]c1=O | -2 | / | 4 | i | / | -8 | 1 | -3
56 | CC(C)Cc1nc(N2CCN(C(=O)c3ccco3)CC2)c(C#N)c2c1CCC2 | -26 | -8 | / | i | 0 | -7 | -13 | 4
57 | CCCCCNC(=O)c1ccc2c(=O)n(CCCOCC)c(=S)[nH]c2c1 | 6 | -6 | 18 | i | 2 | -15 | 5 | -13
58 | COc1ccccc1-c1sc2ccccc2c1-c1ccc(C(C)=O)cc1 | -2 | -2 | / | i | -2 | -20 | -2 | 30
59 | COc1cc(C2/C(=C(\O)c3ccc4c(c3)CC(C)O4)C(=O)C(=O)N2c2nnc(C)s2)cc(OC)c1OC (stereo not drawn) | -3 | 8 | -2 | i | 7 | -10 | 1 | 1
60 | CC(=O)c1cccc(CN2CCC(n3nccc3NC(=O)CCOc3ccccc3)CC2)c1 | 1 | 0 | 7 | i | 27 | -13 | 4 | -3
61 | O=S(=O)(NC1CCCCC1)c1ccc(N2CCOCC2)nc1 | 2 | -8 | 4 | i | 2 | -12 | 3 | -15
62 | CN1CCN(S(=O)(=O)c2cccc(S(=O)(=O)c3ccc(Cl)cc3)c2)CC1 | -8 | 8 | 3 | i | -6 | -7 | -5 | -7
63 | CCCCCc1ccc(S(=O)(=O)Nc2cc(C)ccn2)cc1 | 1 | -6 | -12 | / | 5 | / | -15 | 58
64 | Cn1cc(CN2CCC(n3nccc3NC(=O)Cc3ccccc3)CC2)cn1 | 0 | 13 | -26 | i | 5 | -14 | 3 | 6
65 | c1cncc(-c2nn[nH]n2)c1 | -1 | 8 | -51 | i | -8 | -6 | 2 | -5
66 | Cc1cccc(NC(=O)c2cccc(N3C(=O)CCC3=O)c2)c1 | 0 | -3 | -210 | i | 8 | 1 | 5 | -16
67 | O=C1C2CCCCN2C(=O)N1CCCCN1CCN(c2ccccc2Oc2ccccc2)CC1 (stereo not drawn) | -1 | -12 | 7 | i | -6 | -17 | -5 | 30
68 | COc1cc(/C=C2\SC(=Nc3cccnc3)NC2=O)cc(OC)c1OC | -12 | 24 | 1 | i | 30 | -7 | 5 | 50
